# eIF4H inh: human eIF4H binding inhibitors, primary screen, translation initiation inhibitor project, biochemical, uHTS, fluorescence polarization; Eukaryotic translation initiation factor 4H (Homo sapiens), Q15056; eIF4H fluorescence polarization binding assay; inhibition, % at 35 µM; hit rate 0.94% among 290,000; AID 2012, 2009;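 active means 50% or more with normal probe brightness, or confirmed in later tests; inconclusive means above 50% with abnormal brightness, or retests that disagree; inactive means below 50% or failed in later tests; about a fifth of its hits are not listed in these tables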;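 further: calls also rest on retests at 20 µM and on dose response follow-up; 0% = protein and probe with vehicle and 100% = probe without protein; strong numbers were not always called active; many hits fall short of the cut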
# HIV Env fusion: inhibitors of HIV-1 Env-driven cell-cell fusion, primary screen, HeLa-JRFL effector, CEM21 target cells, luciferase | inhibition, % at 12.3 µM | hit rate 1.1% among 360,000 | AID 651610, 2012;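 active means mean replicate inhibition score of at least 50 and every replicate individually at or above 50; inconclusive means only one of the two criteria met; inactive means mean below 50 and not all replicates reaching 50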;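 further: 0% = plate neutral controls and 100% = maraviroc near 300 nM; one replicate is shown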
# UUG fidelity: modulators of yeast start codon fidelity, primary screen, whole organism, S. cerevisiae, single point, plate reader; hit rate 0.13% among 350,000; activity score, % at 18.7 µM; S. cerevisiae UUG-firefly luciferase reporter, luminescence/redox ratio;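 active means replicate mean at a twofold rise or more, about +100% in these data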;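 further: firefly luciferase made from a UUG start codon reports start codon fidelity; reporter light over untreated wells divided by growth signal over untreated wells; some hits fall short of that in this replicate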
# CSC inhib: cancer stem cell viability inhibitors, primary screen, luminescence. cancer stem cell-like cells viability. inhibition, % at 7.5 µM. hit rate 1.1% among 300,000;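 active means mean at 75% or more and at least half the replicates too; inconclusive means mean and replicates disagree; tested in HMLE shEcad cells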;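 further: 0% = median of negative and 100% = median of positive control wells; the first replicate is given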
# Rce1 inh: yeast Rce1p protease inhibitors, primary screen, biochemical, fluorescence, cell-free homogeneous; yeast membranes, quenched prenylated peptide cleavage fluorescence; calls only; hit rate 0.27% among 290,000; AID 2563, 2010;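 active means fall in fluorescence gain of 50% or more versus controls, with final raw signal at or below 3038400; inconclusive means same 50% fall but final raw signal above 3038400; inactive means fall in fluorescence gain under 50%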;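 further: plate controls were neutral control wells for no effect and wells lacking membranes for full effect; tested at 10 µM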
# PABP polyA inh: PABP poly(A) RNA binding inhibitors, primary screen, biochemical, fluorescence polarization, uHTS. hit rate 1% among 290,000. Polyadenylate-binding protein 1 (Homo sapiens), P11940. inhibition, % at 35 µM;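 active means 50% or more with normal probe brightness, or confirmed in later tests; inconclusive means above 50% with abnormal brightness, or retests that disagree; inactive means below 50% or failed in later tests; about a fifth of its hits are not listed in these tables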;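 further: calls also rest on retests at 20 µM and on dose response follow-up; controls were probe without protein and protein plus probe with vehicle; some compounds called inactive have numbers as strong as hits; many hits fall short of the cut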
# Target sequence (P11940 whole entry, looked up): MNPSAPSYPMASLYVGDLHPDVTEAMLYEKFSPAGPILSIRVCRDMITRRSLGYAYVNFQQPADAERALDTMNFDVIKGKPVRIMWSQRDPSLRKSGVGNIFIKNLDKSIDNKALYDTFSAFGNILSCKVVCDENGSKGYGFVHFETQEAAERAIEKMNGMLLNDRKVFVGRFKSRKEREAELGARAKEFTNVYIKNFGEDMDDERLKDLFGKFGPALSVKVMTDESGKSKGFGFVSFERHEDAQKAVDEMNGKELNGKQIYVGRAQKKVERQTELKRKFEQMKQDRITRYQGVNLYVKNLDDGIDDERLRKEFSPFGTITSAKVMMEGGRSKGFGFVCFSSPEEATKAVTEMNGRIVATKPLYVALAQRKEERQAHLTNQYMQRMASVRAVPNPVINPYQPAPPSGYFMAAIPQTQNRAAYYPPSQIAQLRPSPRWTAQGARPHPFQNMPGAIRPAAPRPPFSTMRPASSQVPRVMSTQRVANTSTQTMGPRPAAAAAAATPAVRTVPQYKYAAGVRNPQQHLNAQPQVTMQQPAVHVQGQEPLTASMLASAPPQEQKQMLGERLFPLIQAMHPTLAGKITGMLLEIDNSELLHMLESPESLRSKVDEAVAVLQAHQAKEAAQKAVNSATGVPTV
# MT1-MMP act inh: blockers of MT1-MMP proenzyme processing, primary screen, HT1080 RFP-PRO-GFP cells, GFP/RFP fluorescence. Matrix metalloproteinase-14 (Homo sapiens), P50281. GFP/RFP ratio fluorescence, overnight; percent of plate control window, DMSO zero. GFP/RFP ratio change, % at 20 µM. hit rate 0.061% among 360,000;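 active means GFP/RFP ratio change of at least 30% with cell ATP level not reduced by more than half and red fluorescence within 50% of control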; further: strong numbers were not always called active
#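 Assay system – RFP-PRO-GFP reporter HT1080 cells · Compound dosing – single dose of 20 µM compound, 1% DMSO final · Incubation – overnight compound exposure at 37 °C · Measure – GFP/RFP fluorescence ratio · Benchmarks – DMSO wells and RFP-L50D-GFP cells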
# MT1-MMP act inh RFP: also measured in MT1-MMP act inh; calls as there; RFP signal change, %; measured here: RFP expression control read;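 0 = vehicle wells; hits needed this value within 50% of zero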
# The depositor's hits bear a star; i = inactive; ? = inconclusive; / = no result given.
SMILES,eIF4H inh,HIV Env fusion,UUG fidelity,CSC inhib,Rce1 inh,PABP polyA inh,MT1-MMP act inh,MT1-MMP act inh RFP
NC1=NC(=O)/C(=C/c2cc(Br)c(O)c(Br)c2)S1,-5.1,-2.0,/,1.9,i,2.0,-43.3,-0.2
CC1CCN(CCNC(=O)C2CCCN(S(=O)(=O)c3cccc4nonc34)C2)CC1 (stereo unspecified),-5.2,/,-11.8,4.8,i,8.8,-0.9,4.1
CCn1c(-c2ccccc2Cl)nn(CC(=O)Nc2ccccc2C)c1=S,0.0,/,-15.2,6.3,i,36.9,4.5,3.4
COc1ccc(C(=O)N2CCCC(C(=O)O)C2)c2ccccc12 (stereo unspecified),0.0,-1.1,-11.9,3.7,i,4.8,5.7,8.3
COC(=O)Cc1ccc(NC(=O)c2ccc(NC(=O)c3ccco3)cc2)cc1,-8.1,-8.1,/,8.9,i,-10.3,-0.4,-3.5
O=C(/C=C/c1cccc(C(F)(F)F)c1)N1CCN(c2ccccn2)CC1,-1.0,-0.8,-5.7,9.1,i,-5.1,1.1,1.7
c1ccc(C(c2ccccc2)N2CCN(C(c3ccccn3)c3nnnn3C3CCCC3)CC2)cc1 (stereo unspecified),-3.3,/,/,-3.6,i,0.3,-0.5,3.8
CC1=NN(c2ccc(C)c(C)c2)C(=O)/C1=C/c1ccc2c(c1)n(C)c(=O)n2C,7.1,-4.8,/,-0.4,i,5.7,-1.4,-2.3
Cc1ccc(C)c(OCC(=O)NNC(=O)c2ccc(NC(=O)C3CC3)cc2)c1,-11.6,-2.5,0.0,-2.2,i,-12.6,-0.8,-0.6
COCCNC(=O)CN(C(=O)Cn1nnc2ccccc21)c1cccc(C)c1C,-4.7,-5.0,2.9,-13.2,i,7.2,-2.5,2.7
Cc1onc(-c2ccccc2Cl)c1C(=O)OCC(=O)N1CCCc2ccccc21,-0.5,-35.5,-8.9,-7.7,i,6.1,-6.4,10.4
Cc1ccc(-n2ncc3c2CCCC3NC(=O)CCc2cnn(C)c2)cc1C (stereo unspecified),-4.4,22.5,-19.7,-4.2,i,1.3,-3.1,-3.9
O=C(NCc1ccccc1)C1=C[C@@H](c2ccc3c(c2)OCO3)C[C@@H](OCc2ccc(CO)cc2)O1,/,-0.3,-10.3,34.5,i,/,-0.6,-5.8
O=S1(=O)CCC(NC(=S)NCCNC(=S)NC2CCS(=O)(=O)C2)C1 (stereo unspecified),-1.6,-11.2,-1.5,/,i,6.1,4.0,1.1
Fc1ccc2cc(CCO[C@H]3CCCCO3)ncc2c1,/,-53.2,-27.9,-14.7,/,/,1.7,1.9
CCOC(=O)C(C)N1C(=O)S/C(=C\c2ccc(-c3ccccc3C(=O)O)o2)C1=O (stereo unspecified),101.1*,-9.2,40.5,-5.9,i,71.6*,-2.0,6.7
COc1ccc(C(=O)NCc2nnc(SCC(=O)Nc3cccc(C(F)(F)F)c3)o2)cc1OC,-14.8,/,-9.9,-10.4,i,-1.3,1.7,0.1
O=c1oc(-c2ccccc2NS(=O)(=O)c2ccc3ccccc3c2)nc2ccccc12,1.5,/,5.6,34.5,i,3.9,0.3,-1.9
COc1ccc(S(=O)(=O)NCCC(=O)N2CCCN(C)CC2)cc1,/,/,-13.8,2.2,/,/,2.9,2.9
Cc1ccc(-n2nnnc2SCC(=O)NC2CCCc3ccccc32)cc1 (stereo unspecified),-12.0,26.8,10.3,-4.3,i,-17.7,0.6,1.0
CN(Cc1cn(C)nc1-c1ccccc1F)Cc1nccn1C,-1.7,-9.0,-13.6,-9.5,i,-2.0,-3.1,4.1
O=C(O)c1ccc(/C=N/Nc2ccc(C(F)(F)F)cn2)cc1,-3.4,-93.9,/,/,i,-2.8,-1.9,1.8
COc1ccc(NC(=O)c2cc3ccccc3oc2=O)c(OC)c1,4.8,-22.8,-18.0,7.8,i,15.0,-1.4,1.7
CC1=NN(c2ccccc2)C(=O)C1C(=O)c1ccc([N+](=O)[O-])cc1 (stereo unspecified),-6.9,-4.7,/,-1.9,i,1.1,1.8,1.6
OCCN1CCN(CCCN2c3ccccc3Sc3ccc(C(F)(F)F)cc32)CC1,-4.5,/,-12.3,85.5*,i,-3.5,-4.4,-3.6
COc1ccc(CNC(=S)NC(C)CCc2ccccc2)cc1 (stereo unspecified),-7.5,-0.1,/,-0.2,i,-10.8,1.6,-3.4
COc1cc(OC)cc(-c2c(C#Cc3ccsc3)c3cc(-c4ccc(C(N)=O)cc4)ccc3n2C)c1,/,16.1,-17.9,29.8,/,/,-4.1,-8.3
C=CCn1c(-c2cc(-c3ccc(C)cc3)nc3ccccc23)n[nH]c1=S,13.5,8.2,/,/,i,9.2,3.0,-1.3
COc1ccc(S(=O)(=O)N2CCCC(C(=O)NCCC(C)C)C2)cc1 (stereo unspecified),-1.6,2.8,-21.7,-10.0,i,2.4,-6.4,-9.5
CCc1nc(SCC(=O)Nc2nccs2)c2oc3ccccc3c2n1,-3.9,/,/,4.8,i,-8.8,-4.9,-5.1
CC(=O)Nc1ccc(S(=O)(=O)NC2=C(N3CCN(c4ccc(F)cc4)CC3)C(=O)c3ccccc3C2=O)cc1,0.1,7.7,-16.7,39.5,i,31.6,-0.7,-12.3
COc1ccc(N=NC2=C(O)CC(C)(C)CC2=O)cc1,-8.3,-11.3,-11.3,18.3,i,-12.2,4.2,-2.4
O=C(NCc1ccncc1)C(=O)Nc1nccs1,-7.5,-18.6,-18.4,8.0,i,1.2,0.1,-0.7
NC(=O)C1CCN(CC(=O)Nc2ccccc2Sc2ccccc2)CC1,-13.4,-5.0,/,-5.1,i,3.4,-2.2,-5.8
Cc1nc2ccccc2c(=O)n1-c1ccc(F)c(NC(=O)c2cccs2)c1,/,10.3,11.3,-10.5,i,/,4.5,1.5
Cc1cnnc2ccc3c(no[n+]3[O-])c12,4.3,/,/,-6.7,i,7.6,-2.2,2.2
CCC1(c2ccccc2)NC(=O)N(CC(=O)Nc2ccc(OC)nc2)C1=O (stereo unspecified),?,/,-18.2,4.4,i,?,-62.6,5.4
CN(CC(=O)NCCCN1CCOCC1)S(=O)(=O)c1ccc(Br)cc1,-3.5,/,-18.8,/,i,2.5,2.8,3.5
CCCCNC(=O)CSc1nnc(-c2ccco2)n1C,-10.9,0.4,-18.1,-4.0,i,0.3,2.9,6.3
CCCCN(C(=O)CSc1n[nH]c(-c2ccc(C)cc2)n1)c1c(N)n(CCCC)c(=O)[nH]c1=O,/,-5.5,-6.6,-4.6,i,/,2.1,3.0
C=CCn1c(N2CCCCCC2)nc2c1c(=O)[nH]c(=O)n2C,-7.0,-24.3,-11.8,18.0,i,8.9,-0.3,-7.1
O=C(Cc1cc(=O)[nH]c(=O)[nH]1)NCc1ccc(Cl)cc1,2.8,1.4,-3.7,-4.8,i,11.8,-0.4,1.1
CNS(=O)(=O)c1cc(-c2nnc(Nc3ccc(NC(C)=O)cc3)c3ccccc23)ccc1C,-6.8,4.4,-2.6,-20.4,i,4.4,7.2,-1.3
CN(C(=O)c1ccc(COc2ccccc2Br)o1)c1ccccc1,1.2,9.6,/,-7.1,/,3.5,-0.5,2.3
Fc1cccc(-c2nn[nH]n2)c1,-4.0,/,-16.2,-2.4,i,1.7,-0.4,-1.5
O=C(NCc1ccco1)/C(=C\c1ccco1)NC(=O)c1ccccc1Cl,-0.4,-11.0,-14.0,/,i,-1.1,-0.4,3.7
O=C(c1ccccc1)N1CCCC(C(=O)N2CCc3ccccc3C2)C1 (stereo unspecified),-3.1,-12.5,1.5,4.4,i,5.1,5.1,-5.6
CCN(CC(=O)NC(c1ccccc1)c1ccccc1)Cc1nc2ccccc2c(=O)[nH]1,-0.2,/,/,-4.1,i,-5.4,-4.9,-3.3

# Some of these compounds in order of molecular weight, ascending.
SMILES,eIF4H inh,HIV Env fusion,UUG fidelity,CSC inhib,Rce1 inh,PABP polyA inh,MT1-MMP act inh,MT1-MMP act inh RFP
Fc1cccc(-c2nn[nH]n2)c1,-4.0,/,-16.2,-2.4,i,1.7,-0.4,-1.5
C=CCn1c(N2CCCCCC2)nc2c1c(=O)[nH]c(=O)n2C,-7.0,-24.3,-11.8,18.0,i,8.9,-0.3,-7.1
CNS(=O)(=O)c1cc(-c2nnc(Nc3ccc(NC(C)=O)cc3)c3ccccc23)ccc1C,-6.8,4.4,-2.6,-20.4,i,4.4,7.2,-1.3

# (continued)
SMILES,eIF4H inh,HIV Env fusion,UUG fidelity,CSC inhib,Rce1 inh,PABP polyA inh,MT1-MMP act inh,MT1-MMP act inh RFP
CN(C)C(=O)CNc1n[nH]c(=S)[nH]c1=O,-5.7,-20.5,-6.2,-27.0,i,-7.9,4.0,5.1
Cc1ccc(Cl)cc1S(=O)(=O)N1CCC(C(=O)NC2CCN(Cc3ccccc3)CC2)CC1,-1.0,29.2,-2.4,14.2,i,3.8,-2.6,-21.7
Cc1ccoc1C(=O)Nc1cccc(Oc2ccccc2)c1,-3.5,/,-15.7,7.5,i,-9.2,2.9,0.4
CC(C)n1c(-c2ccccc2F)n[nH]c1=S,2.6,/,-21.6,-7.7,i,-9.7,1.8,-1.9
CN(CC(=O)Nc1ccccc1C(F)(F)F)C(=O)Cc1ccccc1F,-14.0,1.6,-0.9,-4.3,/,-9.1,1.7,2.9
CCOc1ccc(N(CC(=O)NCc2ccc(F)cc2)C(=O)c2snc(C(N)=O)c2N)cc1,1.6,-2.9,-16.7,-2.9,i,3.9,1.5,4.0
CSc1ccc(NC(=O)Nc2cc(C)ccn2)cc1,-9.2,-109.3,-17.3,5.0,i,-0.1,0.7,-3.1
O=C1CCCC2=C1C(c1cccc(O)c1)C1=C(N2)c2ccccc2C1=O (stereo unspecified),-4.9,14.4,/,-4.4,i,0.3,6.3,-4.1
COc1ccc(C(=O)NC(=S)NNC(=O)c2ccc(C)cc2)cc1,/,0.5,/,19.3,i,/,4.5,-3.0
CN(C)CCCNc1nc(N)c([N+](=O)[O-])c(NCCO)n1,-8.7,1.6,-14.7,26.2,i,4.3,0.2,0.0
CC(NC(=O)c1ccc2ccccc2n1)c1ccccc1 (stereo unspecified),-8.4,6.7,9.5,0.3,i,-6.4,1.8,1.0
CN1CCN(CCCc2c3c(cc4c2CCC4)CCC3)CC1,17.7,/,0.9,-1.0,i,-2.8,4.1,6.9
Cc1cc2oc(C(=O)NC3CCS(=O)(=O)C3)c(C)c2cc1C (stereo unspecified),0.5,/,-11.6,-8.5,i,8.4,2.7,-0.3
N=C1C(c2nc3ccccc3[nH]2)=C(O)CN1NC(=O)COc1cccc(F)c1,-1.3,/,/,-15.0,i,11.4,/,/
Oc1c(Cl)cc(Cl)c(Cl)c1CN1CCOCC1,/,15.3,-16.5,/,/,/,-7.3,-0.7
Cc1cc(C)c(Cn2c3ccccc3c3cnn(CC(=O)NCCN4CCOCC4)c(=O)c32)c(C)c1,-12.5,2.9,-5.7,-7.5,i,-4.6,-0.8,-1.6
CCCCC(=O)Nc1ccc(C)c(S(=O)(=O)N2CCCCCC2)c1,/,2.3,-1.5,/,/,/,6.5,-3.0
C=CCn1c(-c2ccccc2OCC)n[nH]c1=S,-2.1,8.9,7.3,-21.6,i,-8.6,1.7,1.3
O=C(NCc1ccc(F)cc1)c1cc(-c2ccco2)on1,-2.7,/,/,12.6,i,0.6,4.0,3.5
